High-throughput results from PubChem BioAssay.
VDR inhibitor: inhibitors of human vitamin D receptor; VDR-SRC2-3 peptide fluorescence polarization, 2 h; Potency, µM, without a hit: max response, negative = inhibition, actives largely listed as inhibitors; 400,000 tested, 0.93% active; AID 504847; active = well fitted inhibition curve with a large enough effect; inconclusive = small, poorly fitted or top-dose-only effect, or another doubt; inactive = no such curve, though single readings can be large or run the other way; note: series mostly up to about 120 µM
Target sequence (P11473 whole entry, looked up): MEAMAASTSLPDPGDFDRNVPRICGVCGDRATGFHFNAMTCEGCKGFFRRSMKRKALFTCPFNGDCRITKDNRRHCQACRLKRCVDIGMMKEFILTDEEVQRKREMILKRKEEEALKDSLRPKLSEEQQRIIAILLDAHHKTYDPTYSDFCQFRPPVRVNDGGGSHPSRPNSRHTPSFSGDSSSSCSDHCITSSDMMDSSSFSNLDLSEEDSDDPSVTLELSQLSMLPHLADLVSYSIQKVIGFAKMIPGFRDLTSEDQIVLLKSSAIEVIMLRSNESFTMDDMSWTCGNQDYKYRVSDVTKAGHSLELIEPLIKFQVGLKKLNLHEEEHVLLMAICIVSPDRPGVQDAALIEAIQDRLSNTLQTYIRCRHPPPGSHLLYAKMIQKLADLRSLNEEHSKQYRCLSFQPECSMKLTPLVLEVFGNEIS
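Reagent solutions, kept cold and dark, are dispensed first; compounds are then pinned in at 23 nl, plates briefly spun, and incubated 2 h at ambient temperature. Inhibition of VDR–SRC2-3 peptide binding is read by fluorescence polarization.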
Numbers without * were called inactive; ? = inconclusive; & = joins results of further samples. % is set by controls: 0 for no effect and ±100 for the full control effect; potency is the fitted concentration of half-maximal effect. Some of the compounds tested; the hit share may differ from the screen's.

compound | VDR inhibitor
CC1CCCN(S(=O)(=O)c2ccc(C(=O)Nc3nnc(C4CC4)o3)cc2)C1 (configuration not stated) | 9.2%
COc1ccc(CC(=O)Nc2cc(=O)n(C)c(=O)n2C)cc1OC | 12.2%
CN(C)CCN(Cc1cccs1)S(=O)(=O)c1csc(C(N)=O)c1 | -17.3%
O=C(Nc1nnc2n1CCS2)c1ccccc1 | 15.3%
COCCN1C(=O)c2ccccc2C(C(=O)N2CCN(c3ccccc3)CC2)C1c1ccc(F)cc1 (configuration not stated) | -11.3%
COCCn1c(NC(=S)NC(=O)C23CC4CC(CC(C4)C2)C3)cc(=O)[nH]c1=O | -11.1%
Cn1c(=O)c2cc(S(=O)(=O)NC(Cc3ccccc3)C(=O)NCC3CCCO3)ccc2n(C)c1=O (configuration not stated) | -5.4%
COc1ccc(-c2nc(C#N)c(NCc3ccccc3Cl)o2)cc1 | 8.2%
CCOc1ccc(N(CC(=O)Nc2ccc(F)c(F)c2)S(=O)(=O)c2c(C)noc2C)cc1 | -14.3%
Cc1cccc2sc(NC(=O)CCNC(=O)c3ccco3)nc12 | -2.1%
CCN(CC)c1ccc(/C=N/N2CCN(Cc3ccccc3Cl)CC2)c(O)c1 | 0.7%
COc1ccc(NC(=O)CCNS(=O)(=O)c2ccc(NC(C)=O)cc2)cc1Cl | -13.1%
CC(C)COc1ccc(C(=O)N2C(=O)c3ccc(N)cc3C2=O)cc1 | -10.6%
Cn1nnnc1SCC(=O)N(C1CCCCC1)C1CCS(=O)(=O)C1 (configuration not stated) | 0.6%
CC(C)n1c(NCc2ccc(Cl)cc2)nc2ccccc21 | -0.3%
O=C(O)/C=C/c1cccc(NS(=O)(=O)c2ccccc2)c1 | -10.9%
COc1ccc(C(=O)OCC(=O)NC2CC2)cc1F | 15.1%
COc1ccccc1CNC(=O)COC(=O)c1ccc(C)s1 | -5.6%
CCCOC(=O)c1cccc(NC(=O)C(C)(C)C)c1 | -4.4%
Fc1ccccc1C(c1nnnn1C1CCCC1)N1CCN(Cc2ccccc2)CC1 (configuration not stated) | -0.9%
Cc1cccc(CN2C(=O)c3ccccc3Sc3ccc(C(=O)O)cc32)c1 | -22.4%
COc1ccc([N+](=O)[O-])cc1C(=O)NC1CCN(Cc2ccccc2)CC1 | -4.0%
Cc1cccc(Oc2ccc(Cl)cc2N)c1 | 9.8%
CCOC(=O)C1C(=O)NC(c2ccccc2)=NC1c1cccc(Br)c1 (configuration not stated) | -14.8%
CCCC(=O)N1CC(=O)Nc2ccc(Br)cc2C1c1ccc(F)cc1 (configuration not stated) | -2.2%
Cc1ccc(S(=O)(=O)N2CCc3ccccc3C2CC(=O)O)cc1 (configuration not stated) | -0.6%
N/C(=N\OC(=O)c1ccc(Cl)c(Cl)c1)c1cccc(CSc2ccccn2)c1 | -3.1%
N#C/C(=C\c1ccc(C(=O)O)cc1)c1nc2sc3c(c2c(=O)[nH]1)CCCC3 | -5.2%
N#CC(CC(=O)c1ccc(F)cc1)c1ccc2c(c1)OCO2 (configuration not stated) | -14.8%
COc1cc(C(=O)OCC(=O)c2c(N)n(C)c(=O)n(C)c2=O)ccc1OCCC(C)C | 0.3%
O=S(=O)(N/N=C/c1ccc(OC2CSC2)cc1)c1ccccc1 | -2.2%
CCCn1c(=O)c2ccccc2n2c(SCC(=O)c3cc(C)n(CCOC)c3C)nnc12 | 13.7%

3 entries already listed, ordered by length of the SMILES, high to low:
compound | VDR inhibitor
CCCn1c(=O)c2ccccc2n2c(SCC(=O)c3cc(C)n(CCOC)c3C)nnc12 | 13.7%
N/C(=N\OC(=O)c1ccc(Cl)c(Cl)c1)c1cccc(CSc2ccccn2)c1 | -3.1%
Cc1ccc(S(=O)(=O)N2CCc3ccccc3C2CC(=O)O)cc1 (configuration not stated) | -0.6%

Next section
compound | VDR inhibitor
CCCCNC(=O)CSc1nc2ccc(C)cc2[nH]1 | -6.4%
O=C1c2ccccc2C(Nc2ccc(Cl)cn2)N1Cc1ccccc1 (configuration not stated) | -3.0%
CCCCC(=O)NNC(=S)NC(=O)c1ccc(C)cc1 | -7.9%
O=C(Nc1cc(Cl)ccc1Cl)c1cc2nc(-c3ccc4c(c3)OCO4)cc(C(F)(F)F)n2n1 | 9.4%
COc1ccccc1CNC(=O)c1cccc(-c2ccccc2OC)n1 | 2.2%
Clc1ccc(-c2nnc(-c3ccccc3)c(-c3c[nH]c4ccccc34)n2)cc1 | -3.0%
CCCn1c(N)cc(=O)n(CCC)c1=O | -12.0%
CCOC(=O)N1N=C(c2ccccc2)CC1(O)C(C)(F)F (configuration not stated) | -13.1%
Cn1cccc1Cc1nnc(SCC(=O)Nc2ccccc2F)n1CCc1ccccc1 | -4.2%
Cc1ccc(S(=O)(=O)N(C)C)cc1NC(=O)CCNC(=O)c1ccccc1Cl | 19.1%
CCc1ccc(N(CC(=O)NC2CCCCC2)C(=O)CNC(=O)c2ccco2)cc1 | -12.0%
CCC(=O)N1CCc2cc(S(=O)(=O)NCCC(=O)NCc3ccccc3Cl)ccc21 | 7.7%&-11.4%
CCOc1ccc(C(=O)N(CN2CCCC2=O)c2ccc(C)cc2)cc1 | -19.2%
CC(/C=N/NC(=O)c1ccc(Cn2cc([N+](=O)[O-])cn2)o1)=C\c1ccccc1 | 6.6%
Cc1nc2c(nnn2Cc2ccccc2Cl)c(=O)[nH]1 | -5.5%
Cc1ccc(NC(=O)Cn2c(=O)n(Cc3ccccc3)c(=O)c3c2c2cc(C)ccc2n3C)cc1 | 10.0%
O=C(CN1C2=NCCCN2c2ccccc21)c1ccc(Br)s1 | 21.9%
O=C(CSc1nc2ccccc2s1)c1cc2ccccc2o1 | 14.3%
COC(=O)c1ccc(N2CCCCC2)c(NS(=O)(=O)c2ccc(C)cc2)c1 | 2.5%
COC(=O)C(C)Oc1ccc(Cc2ncc(C(F)(F)F)cc2Cl)cc1 (configuration not stated) | -2.2%
CCN(C(=O)CCN1C(=O)c2ccccc2C1=O)C1CCCCC1 | -0.2%
CCOc1ccc(C2NC(=O)NC(C)=C2C(=O)OCc2ccccc2)cc1 (configuration not stated) | 0.3%
CCCc1n(CC)c2ccccc2[n+]1CC(O)COC1CCCCC1 (configuration not stated) | -10.7%
Cc1ccc(C)c(NC(=O)c2c(Cl)nc3ccccn23)c1 | -4.6%
CCc1ccc(C(=O)c2cn(CC(=O)NCc3ccc(C)cc3)c3nc(C)ccc3c2=O)cc1 | 1.6%
COc1ccc(C2NC(=O)N(C)C3=C2C(=O)N(c2ccc(C(=O)O)cc2)C3)cc1 (configuration not stated) | -2.2%
Cc1cccc(-c2n[nH]c(S(C)(=O)=O)c2C#N)c1 | -10.9%
O=C(N/N=C/c1c[nH]c2ccccc12)c1ccccc1O | 16.6%
CC(=O)c1sc(NC(=O)c2cc(S(=O)(=O)N3CCOCC3)ccc2F)nc1C | -1.7%
COc1cc(NC(=O)c2ccc(COCC(F)(F)F)cc2)cc(OC)c1OC | -17.0%
CNC(=O)c1ccsc1NC(=O)c1ccccc1 | -5.3%
C=CCN(C(=O)C1CC(=O)N(C2CCCC2)C1)c1nc(-c2ccc(S(C)(=O)=O)cc2)cs1 (configuration not stated) | -18.2%
O=C(Nc1ccccc1)c1cccc(S(=O)(=O)Oc2ccc([N+](=O)[O-])cc2)c1 | ?
CC(C)(C)NC(=O)COC(=O)Cc1ccc(Cl)cc1 | 6.7%
CC(C)c1ccc(OCC(=O)NNC(=S)NC(=O)C2CC2)cc1 | -10.7%
Cc1ccc(CC(CC(=O)O)C(=O)Nc2ccc(Cl)cc2)cc1 (configuration not stated) | -5.7%
CCOC(=O)N1CCC(NC(=O)c2cc(S(=O)(=O)N3CCCC3)cn2C)CC1 | 2.9%
COc1ccc(C)cc1-n1nnnc1SCC(=O)N1CCC(C(=O)Nc2nccs2)CC1 | -17.5%
O=C(CN1CCCCC1)NCCNC(=O)CN1CCCCC1 | 10.7%
Cc1ccc(C)c(NC(=S)NNC(=S)Nc2ccc(C(C)C)cc2)c1 | 35.5µM*
Cc1cc(C(=O)NCCc2ccc(Cl)cc2)c2c(C)nn(-c3cccc(F)c3)c2n1 | 12.5%
COc1ccc(C2=CC(=O)CC(c3ccc(F)cc3)C2)cc1 (configuration not stated) | -12.2%
CC(=O)c1ccc(S(=O)(=O)Nc2cccc(-c3ccc(N4CCCC4)nn3)c2)cc1 | 12.1%
CC(C)(C(=O)c1ccccc1)/[N+]([O-])=C/c1ccccc1 | 23.2%
O=C(c1ccccc1-c1nc(-c2ccccc2)no1)N1CCOCC1 | -10.7%
CCOC(=O)Nc1cc(OC)c(OC)cc1Cc1nccc2cc(OC)c(OC)cc12 | 9.7%
Cc1cccc(-n2c3c(cc(-c4nc(-c5ccc(Cl)cc5)cs4)c2=O)C(=O)CC(C)(C)C3)c1 | -10.9%
COc1ccc(C(=O)CN2C(=O)NC3(CCc4ccccc43)C2=O)cc1 (configuration not stated) | 26.8%
Cc1nc(N2CCOCC2)c2c(C)c(C(=O)Nc3ccc(F)cc3F)sc2n1 | 15.9%
CCC(Sc1ccc(Cl)cc1)C(=O)Nc1nnc(-c2cccc([N+](=O)[O-])c2)s1 (configuration not stated) | 13.3%
COc1cccc2oc(SC)cc(=O)c12 | -24.9%
COC(=O)c1ccc(C(c2c(N)n(Cc3ccccc3)c(=O)n(C)c2=O)N2CCOCC2)cc1 (configuration not stated) | -0.2%
CN1CCN(CCCNC(=O)c2ccc(Cn3c(=S)[nH]c4ccc(Br)cc4c3=O)cc2)CC1 | -4.8%
CCC(O)(CCN1CCCCC1)c1ccccc1 (configuration not stated) | -9.2%
CCOc1ccc(C(C)=O)cc1CN1C(=O)NC(C)(C2CC2)C1=O (configuration not stated) | 13.1%
Cc1ccc(-c2cc(-c3ccccc3O)nc(N/N=C/c3cccnc3)n2)cc1 | 4.5%

Other structures.
compound | VDR inhibitor
COc1ccccc1/C=C1\SC(=S)N(N2C(=O)CCCC2=O)C1=O | 7.7%
Cc1cccc(C(=O)NC2CCN(C(=O)Nc3ccc(F)cc3)CC2)c1 | -4.3%
Cc1c(C(=O)N2CCC2)oc2c(F)cccc12 | -15.9%
C=CCN=C1CCCc2c1[nH]c1ccc(C)cc21 | 2.4%
CC(C)C[C@H](NC(=O)[C@H](CCCCN)NC(=O)CNC(=O)[C@H](CC(C)C)NC(=O)[C@@H](NC(=O)[C@@H]1CSSC[C@H](N)C(=O)N[C@@H](CO)C(=O)N[C@@H](CC(N)=O)C(=O)N[C@@H](CC(C)C)C(=O)N[C@@H](CO)C(=O)N[C@@H]([C@@H](C)O)C(=O)N1)C(C)C)C(=O)N[C@@H](CO)C(=O)N[C@@H](CCC(N)=O)C(=O)N[C@@H](CCC(=O)O)C(=O)N[C@@H](CC(C)C)C(=O)N[C@@H](Cc1cnc[nH]1)C(=O)N[C@@H](CCCCN)C(=O)N[C@@H](CC(C)C)C(=O)N[C@@H](CCC(N)=O)C(=O)N[C@H](C(=O)N[C@@H](Cc1ccc(O)cc1)C(=O)N1CCC[C@H]1C(=O)N[C@@H](CCCNC(=N)N)C(=O)N[C@H](C(=O)N[C@@H](CC(N)=O)C(=O)N[C@H](C(=O)NCC(=O)N[C@@H](CO)C(=O)NCC(=O)N[C@H](C(=O)N1CCC[C@H]1C(N)=O)[C@@H](C)O)[C@@H](C)O)[C@@H](C)O)[C@@H](C)O | -8.7%
COc1cccc(CNC(=O)c2ccc(Cn3c(SCc4ccccc4)nc4cccnc43)cc2)c1 | 2.8%
Cc1onc(-c2c(F)cccc2Cl)c1C(=O)OCC(=O)NC1CC1 | -5.8%
CCc1ccc(-c2nn(Cc3ccccc3)cc2/C=C/C(=O)O)cc1 | -4.3%
COc1ccc(CNC(=O)[C@H](C)NC(=O)C2CC(=O)N(c3ccc(OC)cc3)C2)cc1 (some centres not stated) | ?
CCCOc1ccc(-c2cnc(SCC(N)=O)nc2N)cc1 | 10.9%
O=C1CC(c2ccccc2F)C2=C(COC2=O)N1 (configuration not stated) | 9.2%
CCCCN(C)CCNC(=O)c1cc(=O)[nH]c2ccc(S(=O)(=O)N3CCCCCC3)cc12 | 2.9%
CC1(C)N=C(SCc2ccc(F)cc2)c2ccccc2N1 | 9.0%
CCOC1(NC(=O)c2ccccc2)C(C)=CC(=O)C=C1C | 7.0%
COc1ccc(/C=C/C(=O)c2c(O)c(OC)c3occc3c2OC)cc1 | ?
O=C1CCC[C@@H]2CC(NCc3ccc(Cl)c(Cl)c3)C[C@@H]3CCN1[C@H]23 (some centres not stated) | -9.0%

Pulled by compound from the entries so far, two records:
compound | VDR inhibitor
O=C1c2ccccc2C(Nc2ccc(Cl)cn2)N1Cc1ccccc1 (configuration not stated) | -3.0%
Cc1onc(-c2c(F)cccc2Cl)c1C(=O)OCC(=O)NC1CC1 | -5.8%

(continued)
compound | VDR inhibitor
CC(C(=O)c1ccccc1)n1cnc2ccccc2c1=O (configuration not stated) | 4.7%
CCCCOc1cccc(C(=O)O)c1 | -1.2%
CC1CC[C@@]23CCC4(C)[C@@]5(C)CCC6C(C)(C)C(O)CC[C@@]6(C)C5C=C[C@@]4(OC2=O)C3C1C (some centres not stated) | -1.6%
CC(=NNc1nc2ccccc2o1)c1cc2ccccc2cn1 | -20.1%
COc1ccc2[nH]cc(CCNc3nc(-c4ccc(C(=O)N(C)C)cc4)nc4ccccc34)c2c1 | -1.1%
CCN1C[C@@H]2[C@@H]3C(=O)N(Cc4ccccc4)C(=O)[C@@H]3[C@](Cc3ccccc3)(C(=O)OC)N2C1=NC1CCCCC1 | 1.7%
COc1ccccc1Nc1nc(-c2ccccc2)c(CC(=O)O)s1 | -9.0%
CCSc1nc(NCCN(C)C)c2c3c(sc2n1)COC(C)(CC)C3 (configuration not stated) | -4.0%
Cc1nn(C(=O)CNC(=O)c2ccccc2)c(C)c1C | -13.7%
